HIV Env fusion – HIV envelope-mediated fusion inhibition. HeLa-JRFL Env/CEM21 cell fusion, luciferase. inhibition, % at 12.3 µM. actives 1.1% (n = 360,000);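 active = mean replicate inhibition score of at least 50 and every replicate individually at or above 50; inconclusive = only one of the two criteria met; inactive = mean below 50 and not all replicates reaching 50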;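 also: 0% = plate neutral controls and 100% = maraviroc near 300 nM; one replicate is shown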
MT1-MMP act inh – inhibitors of human MT1-MMP activation. P50281. GFP/RFP ratio change, % at 20 µM. HT1080 RFP-PRO-GFP cells, GFP/RFP ratio fluorescence, overnight; percent of plate control window, DMSO zero. actives 0.061% (n = 360,000);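 active = GFP/RFP ratio change of at least 30% with cell ATP level not reduced by more than half and red fluorescence within 50% of control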; also: strong numbers were not always called active
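Assay system: HT1080 cells carrying an RFP-PRO-GFP reporter | Dosing: Single dose of 20 µM compound, 1% DMSO final | Incubation: Cells overnight before dosing, compound overnight, 37 °C, 5% CO2 | Evaluation: GFP/RFP fluorescence ratio | Control set: DMSO and RFP-L50D-GFP cell wells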
Rce1 inh – inhibitors of yeast Ras-converting enzyme. yeast membranes, quenched prenylated peptide cleavage fluorescence. calls only. actives 0.27% (n = 290,000). AID 2563;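 active = fall in fluorescence gain of 50% or more versus controls, with final raw signal at or below 3038400; inconclusive = same 50% fall but final raw signal above 3038400; inactive = fall in fluorescence gain under 50%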;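 also: plate controls were neutral control wells for no effect and wells lacking membranes for full effect; tested at 10 µM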
Target sequence (Q03530 whole entry, looked up): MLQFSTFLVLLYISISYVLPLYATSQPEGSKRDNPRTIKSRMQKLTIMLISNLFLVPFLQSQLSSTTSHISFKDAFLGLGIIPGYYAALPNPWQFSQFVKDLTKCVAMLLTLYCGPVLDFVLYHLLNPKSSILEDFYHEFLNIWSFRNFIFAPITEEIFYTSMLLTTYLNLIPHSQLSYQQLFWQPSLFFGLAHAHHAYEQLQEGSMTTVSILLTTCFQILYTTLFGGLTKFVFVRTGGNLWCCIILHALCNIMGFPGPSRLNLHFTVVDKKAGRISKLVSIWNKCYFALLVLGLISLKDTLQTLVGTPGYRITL
CSC inhib – blocks cancer stem cells | cancer stem cell-like cells viability, luminescence | inhibition, % at 7.5 µM | actives 1.1% (n = 300,000) | AID 2717;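 active = mean at 75% or more and at least half the replicates too; inconclusive = mean and replicates disagree; tested in HMLE shEcad cells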;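 also: 0% = median of negative and 100% = median of positive control wells; the first replicate is given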
PABP polyA inh – blocks human PABP binding to poly(A) RNA. actives 1% (n = 290,000). fluorescence polarization. inhibition, % at 35 µM. AID 2014. P11940;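 active = 50% or more with normal probe brightness, or confirmed in later tests; inconclusive = above 50% with abnormal brightness, or retests that disagree; inactive = below 50% or failed in later tests; about a fifth of its hits are not listed in these tables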;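 also: calls also rest on retests at 20 µM and on dose response follow-up; controls were probe without protein and protein plus probe with vehicle; some compounds called inactive have numbers as strong as hits; many hits fall short of the cut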
Target sequence (P11940 whole entry, looked up): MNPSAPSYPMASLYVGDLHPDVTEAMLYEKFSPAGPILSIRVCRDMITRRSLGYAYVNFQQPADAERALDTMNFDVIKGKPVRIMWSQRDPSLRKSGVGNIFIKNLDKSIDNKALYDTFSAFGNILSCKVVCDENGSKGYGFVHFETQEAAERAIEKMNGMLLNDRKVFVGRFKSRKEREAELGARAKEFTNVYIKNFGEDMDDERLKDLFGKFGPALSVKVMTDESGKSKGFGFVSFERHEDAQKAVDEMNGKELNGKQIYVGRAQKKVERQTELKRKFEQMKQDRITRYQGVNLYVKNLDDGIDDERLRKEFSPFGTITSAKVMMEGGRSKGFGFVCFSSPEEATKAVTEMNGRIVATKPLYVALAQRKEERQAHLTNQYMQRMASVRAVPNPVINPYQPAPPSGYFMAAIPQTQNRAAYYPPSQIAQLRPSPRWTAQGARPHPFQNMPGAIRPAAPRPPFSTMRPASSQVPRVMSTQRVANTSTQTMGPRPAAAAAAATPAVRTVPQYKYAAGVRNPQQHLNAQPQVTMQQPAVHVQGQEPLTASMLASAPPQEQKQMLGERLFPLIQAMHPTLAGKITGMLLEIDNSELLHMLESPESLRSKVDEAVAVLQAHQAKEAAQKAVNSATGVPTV
Yeast UUG start – modulators of start codon recognition fidelity in yeast; AID 602363; activity score, % at 18.7 µM; actives 0.13% (n = 350,000); S. cerevisiae UUG-firefly luciferase reporter, luminescence/redox ratio;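 active = replicate mean at a twofold rise or more, about +100% in these data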;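 also: firefly luciferase made from a UUG start codon reports start codon fidelity; reporter light over untreated wells divided by growth signal over untreated wells; some hits fall short of that in this replicate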
eIF4H inh – inhibitors of RNA binding by human eIF4H. Q15056. eIF4H fluorescence polarization binding assay. inhibition, % at 35 µM. actives 0.94% (n = 290,000). AID 2012;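 active = 50% or more with normal probe brightness, or confirmed in later tests; inconclusive = above 50% with abnormal brightness, or retests that disagree; inactive = below 50% or failed in later tests; about a fifth of its hits are not listed in these tables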;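 also: calls also rest on retests at 20 µM and on dose response follow-up; 0% = protein and probe with vehicle and 100% = probe without protein; strong numbers were not always called active; many hits fall short of the cut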
MT1-MMP act inh RFP – second read-out of MT1-MMP act inh, no call of its own (marks repeat the call); RFP signal change, %; measured here: RFP expression control read;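 0 = vehicle wells; hits needed this value within 50% of zero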
* marks the source's active call; other numbers are inactive results; i = inactive; u = inconclusive; x = no result given; & = joins results of further samples. Outcome played no part in choosing rows; any-hit rate near 3%.

SMILES	HIV Env fusion	MT1-MMP act inh	MT1-MMP act inh RFP	Rce1 inh	CSC inhib	PABP polyA inh	Yeast UUG start	eIF4H inh
O=C(CN1C(=O)C2CCCCC2C1=O)NC1CCCc2ccccc21 (configuration not stated)	1	-3	3	x	x	x	-1	x
CC(=O)N1CCN(S(=O)(=O)c2cccc(C(=O)Nc3ccccc3N3CCCC3)c2)CC1	2	-2	0	i	11	x	-3	x
COC(=O)Cn1ncc(N2C3CC(CC(C)(C)C3)C2C)c(Cl)c1=O (configuration not stated)	19	-1	-1	i	24	-6	7	-5
CCCN(CCC)S(=O)(=O)c1ccc(C(=O)Nc2ccc(S(=O)(=O)Nc3nnc(CC)s3)cc2)cc1	-14	0	2	i	-13	-1	-20	-5
COc1ccc(C)cc1NC(=O)c1ccccc1N(C)S(=O)(=O)c1ccccc1	40	-5	-3	i	-10	7	-4	2
CCCn1cnc2c(SCc3ccccc3F)nc(N)nc21	-7	2	-2	x	x	x	-13	x
CCOc1[nH]n(-c2ccc(Cl)cc2)c(=O)c1C=Nc1ccc(OC)cc1	-42	8	1	x	-5	-2	-4	-8
O=C(c1ccc(Br)cc1)N1CCN(S(=O)(=O)c2ccccc2)CC1	10	2	-3	i	3	-11	7	-9
CNS(=O)(=O)c1cccc(C(=O)OCC(=O)N2CCN(C(=O)c3ccco3)CC2)c1	x	4	6	x	-10	x	-5	x
CN(C)S(=O)(=O)c1cccc(NC(=O)CN(CCO)CC(=O)Nc2cccc(S(=O)(=O)N(C)C)c2)c1	24	0	7	i	-13	6	-2	12
Cc1cccc(N2CCN(CC(=O)NCc3ccc(Cl)cc3)CC2)c1C	21	3	-1	i	20	-1	-2	5
N#Cc1nc(-c2ccc(OCc3ccccc3)cc2)oc1N1CCC(C(N)=O)CC1	x	2	-5	i	12	-2	x	-2
NNC(=O)CCN1CCN(C(c2ccccc2)c2ccccc2)CC1	-6	-8	-2	i	-10	-1	x	-4
COc1ccc(Cc2nnc(NC(=O)Nc3ccccc3F)s2)cc1OC	10	2	-5	i	22	3	-6	11
O=C(Cc1ccccc1[N+](=O)[O-])NCCSCc1c(F)cccc1Cl	x	1	2	i	13	-4	-19	3
CCN(CC)CCN=c1c(C)nc(C#N)c(N)n1O	-1	-1	-1	x	x	x	-18	x
N/C(=N\OC(=O)c1ccc(F)cc1)c1nonc1N	-27	-4	3	i	-9	11	x	-1
C=C1C(=O)[C@]23C[C@H]1CCC2[C@@]1(C)C(C[C@@H]3O)[C@](C)(C(=O)OC)CC[C@@H]1OC(C)=O (some centres not stated)	-200	13	-18	x	x	x	-3	x
Cc1cccc(S(=O)(=O)N2CCn3cccc3C2C)c1 (configuration not stated)	-2	-6	3	x	-12	x	-12	x
O=C(CCNS(=O)(=O)c1ccc(Br)cc1)Nc1cccc(F)c1	8	2	2	i	x	-1	-4	-5
C=CCN(C(=O)CCC(=O)Nc1cc(C)on1)C(C(=O)NC1CCCC1)c1ccc(CC)cc1 (configuration not stated)	0	0	1	i	-7	7	x	2
COc1ccccc1NC(C#N)c1ccccc1OCc1ccccc1 (configuration not stated)	0	2	0	i	33	2	x	0
Cc1ccccc1OCc1nnc(SCC(=O)N2CCc3ccccc32)n1C	-19	4	2	i	-1	11	10	-4
CC(=O)Nc1ccc(C(=O)OCC(=O)Nc2ccccc2F)cc1	6	0	1	i	12	14	x	3
O=C(Cc1ccccc1)Nc1ccc(NC(=O)C2CCCCC2)nc1	14	5	5	i	9	4	-2	-3
COc1cccc(-c2nn(-c3ccccc3)cc2/C=C(\C#N)C(=O)NCCCn2ccnc2)c1	17	-17	2	i	0	-12	-12	u
COc1ccc(-c2nnc(SCc3ccccc3F)o2)cc1	x	2	-3	i	-5	-4	x	-4
CC(C)C[C@@]12C(=O)N(c3cccc(Br)c3)C(=O)N1[C@H](c1ccc(Cl)cc1)[C@@H]1C(=O)N(C3CCCCC3)C(=O)[C@@H]12	70*	x	x	i	13	x	-4	x
COc1ccc(S(=O)(=O)N2CCCC2C(=O)NCC(=O)Nc2cccc(Cl)c2C)cc1 (configuration not stated)	9	2	2	i	-7	4	7	-9
O=C(Nc1ccccc1C(F)(F)F)N1CCN(c2ccccn2)CC1	-8	-1	0	i	-3	-14	x	6
Cc1cc(C)n(-c2cccc(Cl)c2C#N)n1	-16	-1	1	i	-4	-4	1	-9
COc1ccc(/C=N\NC(=O)C2C(=O)NCC2c2ccccc2)cc1O (configuration not stated)	x	-1	1	i	3	-5	-29	-8
CN(C)CCCN=C(NO)c1ccc(Cl)cc1Cl	-1	9	1	i	-3	10	-12	-5
O=C(NNC(=O)c1csc(N2CCOCC2)n1)c1cccnc1	-14	5	5	i	4	x	-6	x
COCC(=O)N1CCC(c2nc3ccccc3[nH]2)CC1	9	1	2	x	x	x	-12	x
CCN1C(=O)/C(=C/c2ccc(OCc3ccc(C(=O)O)cc3)c(Cl)c2)NC1=S	-4	-4	2	i	-1	9	-10	49
Cc1cc2n(n1)C(c1ccccc1)CC(c1ccc(Br)cc1)=N2 (configuration not stated)	x	-82	-6	x	14	3	-16	10
CCOc1cc(C2C(C(=O)c3ccco3)=C(O)C(=O)N2CC2CCCO2)ccc1O (configuration not stated)	-2	-3	0	i	-12	10	-1	8
CSc1ccccc1NC(=O)c1cc(C)on1	-47	-1	-2	i	-16	3	-19	-1
Cc1ccc(C(=O)Nc2cccc(C(F)(F)F)c2)cc1Nc1cncnc1	-14	5&10	-3&0	i	3	17	-17&5	16
O=C(CCCN1C(=O)c2ccccc2C1=O)OC1CSCC1NC(=O)c1ccccc1 (configuration not stated)	x	4	2	i	-11	-3	-12	-6
c1ccc(OCc2nnnn2-c2ccccc2)cc1	-19	4	7	i	-13	9	x	-10
O=C(Nc1ccccc1N1CCOCC1)c1cc(=O)[nH]c2ccccc12	x	2	5	x	4	x	3	x
COc1cc(OC)cc(-n2nc(C(=O)NCCCN3CCOCC3)c3ccccc3c2=O)c1	x	-2	2	x	-6	-10	1	-2
CC(CNC(=O)c1ccccc1Cl)NC(=O)c1ccccc1Cl (configuration not stated)	5	2	6	i	-18	x	0	x
CCOP(=O)(c1ccccc1)C1(C#N)CC1 (configuration not stated)	-14	-3	-2	i	-15	0	x	-4
CCCn1cc(SCC(=O)NCC2CCCO2)c2ccccc21 (configuration not stated)	6	3	2	i	-2	-4	-12	-1
COC(=O)C(Cc1ccccc1)NC(=O)C(CC(C)C)NC(=O)OC(C)(C)C (configuration not stated)	14	1	2	i	x	1	x	12
Cc1[nH]c2c(C)cccc2c1CCNC(=O)C1CCCCC1C(=O)OCC(F)(F)F (configuration not stated)	-11	0	-6	i	-13	-2	-12	5
O=P(c1ccccc1)(c1ccccc1)C(O)c1ccco1 (configuration not stated)	-14	-9	1	i	-15	-2	3	7
COc1cc(C(=O)Nc2ccc3c(c2)N(C(=O)CN2CCN(C)CC2)c2ccccc2CC3)cc(OC)c1OC	5	-1	0	i	-5	18	x	6
O=C(NCc1ccccn1)Nc1cccc(F)c1	-8	5	10	i	2	-3	-5	0
CCOc1ccccc1OCC(=O)Nc1ccc(S(=O)(=O)Nc2nc(C)cc(C)n2)cc1	-125	8	4	i	5	3	-7	-7
COc1cccc(C2c3[nH]c4ccccc4c3CCN2Cc2ncc[nH]2)c1 (configuration not stated)	-23	-2	-4	i	14	-11	-32	9
O=C(Nc1cccc(Cl)c1N1CCOCC1)c1cccnc1Cl	13	1	5	i	-17	-16	-8	2
Cc1[nH]nc2c1C(c1cn[nH]c1-c1ccc(F)cc1)C(C#N)=C(N)O2 (configuration not stated)	x	-9	-14	i	-6	-3	-5	0
CCOC(=O)N1CCN(CC(=O)n2c(C)c(C)c3ccccc32)CC1	21	3	18	i	2	32	-17	-3
Cc1ccc(Nc2cc(C(=O)NCCCN3CCOCC3)c3ccccc3n2)c(C)c1	-24	-3	1	i	-8	-14	-7	-8
COc1ccc(OC)c(-c2cc(C(=O)N3CCc4ccccc4C3)no2)c1	-1	-4	-4	i	4	2	-5	-6
COc1ccc(/C(=C/Nc2cccc(Br)c2)C(C)=O)cc1OC	21	2	-8	i	-1	-5	x	-5
Next part:
SMILES	HIV Env fusion	MT1-MMP act inh	MT1-MMP act inh RFP	Rce1 inh	CSC inhib	PABP polyA inh	Yeast UUG start	eIF4H inh
CCOC(=O)c1c(C)[nH]c(NC(=O)NNC(=O)c2ccccc2Cl)c1C	-20	-1	1	x	-13	x	-11	x
CCOc1ccc(CN2CCN(CCCn3cccn3)CC2CCO)cc1 (configuration not stated)	-6	-1	1	i	-11	7	x	10
CN(C)CCNc1oc(COc2ccc(Cl)cc2)nc1C#N	-88	-2	5	i	10	2	4	-5
COc1ccc(CNC(=O)C2CCN(S(=O)(=O)c3cccc4nonc34)CC2)cc1	-3	-2	-2	i	-15	7	-23	2
Cc1cccc(C(=O)NNC(=O)c2ccc3ccccc3c2)c1	-50	6	1	x	x	x	-3	x
CC(C)c1cc(C(=O)OCC(=O)NC2CC2)c(O)c(C(C)C)c1	13	4	-3	x	x	x	-33	x
O=C1CC(c2cccc(Br)c2)C2=C(CCCC2=O)N1 (configuration not stated)	x	5	9	i	8	19	x	4
Cc1ccccc1C(=O)NCC(=O)NNC(=S)NC(=O)c1ccccc1	5	5	6	i	-2	15	-34	0
O=C(Nc1nccs1)c1c(O)c2cccc3c2n(c1=O)CCC3	x	x	x	i	x	6	x	-4
CN(C)S(=O)(=O)c1cccc(NC(=O)c2cnccn2)c1	x	x	x	i	20	18	x	5
Cc1cccc(NC(=O)CCn2cnnn2)c1	-3	-1	1	x	-2	-1	-37	-4
Cc1nnc(SCc2nnc(-c3cccs3)o2)n1C	-9	2	8	i	x	5	x	2
Cc1ccc2[nH]c(-c3ccccc3)c(CN(C)C)c(=O)c2c1	-35	-3	0	i	7	-7	-17	-4
Cn1c(C(O)c2ccc(Br)cc2)nc(Cl)c1Cl (configuration not stated)	9	3	-3	i	-10	8	-2	-14
O=C(CSc1nnc(NC(=O)c2ccccc2F)s1)NC1CC1	6	1	3	i	-11	-1	-5	-5
O=C1c2ccccc2NC(c2cccs2)N1NS(=O)(=O)c1ccccc1 (configuration not stated)	20	-3	-2	x	14	-21	x	8
Cc1cccc2c(C(=O)O)c3cccc(C)c3nc12	6	-2	1	i	-6	x	x	x
Cc1ccc(S(=O)(=O)NCCC(=O)OCC(=O)Nc2ccccc2Cl)cc1	-6	3	2	i	2	0	x	0
CCn1c(SCC(=O)Nc2cc(C)on2)nnc1-c1ccccc1	-19	0	0	i	-11	2	17	2
COCC(=O)N1CCCC(C(=O)c2ccc(Oc3ccccc3)cc2)C1 (configuration not stated)	25	1	0	i	-6	3	x	-14
CSCCC(C)N1CCC(Oc2ccc(C(=O)NCc3ccccn3)cc2)CC1 (configuration not stated)	-32	-1	4	x	x	x	-23	x

Screens: PubChem BioAssay, several laboratories
